# From PubChem BioAssay
# nsP2pro primary = blocks chikungunya virus nsP2 protease peptide cleavage; 1.1% of 31,000 active; FRET peptide cleavage, nsP2pro, fluorescence 1 h; Potency, µM (series often up to 24.9 µM), inactives show at the highest dose activity change, negative = inhibition, most hits filed as inhibitors; active means well fitted inhibition curve with a large enough effect; inconclusive means small, poorly fitted or top-dose-only effect; inactive means no such curve, though single readings can be large or run the other way; also: nearly all actives have a fitted effect of over 60% in size; a reference inhibitor and vehicle were the controls
# Target sequence (Q8JUX6 whole entry, looked up): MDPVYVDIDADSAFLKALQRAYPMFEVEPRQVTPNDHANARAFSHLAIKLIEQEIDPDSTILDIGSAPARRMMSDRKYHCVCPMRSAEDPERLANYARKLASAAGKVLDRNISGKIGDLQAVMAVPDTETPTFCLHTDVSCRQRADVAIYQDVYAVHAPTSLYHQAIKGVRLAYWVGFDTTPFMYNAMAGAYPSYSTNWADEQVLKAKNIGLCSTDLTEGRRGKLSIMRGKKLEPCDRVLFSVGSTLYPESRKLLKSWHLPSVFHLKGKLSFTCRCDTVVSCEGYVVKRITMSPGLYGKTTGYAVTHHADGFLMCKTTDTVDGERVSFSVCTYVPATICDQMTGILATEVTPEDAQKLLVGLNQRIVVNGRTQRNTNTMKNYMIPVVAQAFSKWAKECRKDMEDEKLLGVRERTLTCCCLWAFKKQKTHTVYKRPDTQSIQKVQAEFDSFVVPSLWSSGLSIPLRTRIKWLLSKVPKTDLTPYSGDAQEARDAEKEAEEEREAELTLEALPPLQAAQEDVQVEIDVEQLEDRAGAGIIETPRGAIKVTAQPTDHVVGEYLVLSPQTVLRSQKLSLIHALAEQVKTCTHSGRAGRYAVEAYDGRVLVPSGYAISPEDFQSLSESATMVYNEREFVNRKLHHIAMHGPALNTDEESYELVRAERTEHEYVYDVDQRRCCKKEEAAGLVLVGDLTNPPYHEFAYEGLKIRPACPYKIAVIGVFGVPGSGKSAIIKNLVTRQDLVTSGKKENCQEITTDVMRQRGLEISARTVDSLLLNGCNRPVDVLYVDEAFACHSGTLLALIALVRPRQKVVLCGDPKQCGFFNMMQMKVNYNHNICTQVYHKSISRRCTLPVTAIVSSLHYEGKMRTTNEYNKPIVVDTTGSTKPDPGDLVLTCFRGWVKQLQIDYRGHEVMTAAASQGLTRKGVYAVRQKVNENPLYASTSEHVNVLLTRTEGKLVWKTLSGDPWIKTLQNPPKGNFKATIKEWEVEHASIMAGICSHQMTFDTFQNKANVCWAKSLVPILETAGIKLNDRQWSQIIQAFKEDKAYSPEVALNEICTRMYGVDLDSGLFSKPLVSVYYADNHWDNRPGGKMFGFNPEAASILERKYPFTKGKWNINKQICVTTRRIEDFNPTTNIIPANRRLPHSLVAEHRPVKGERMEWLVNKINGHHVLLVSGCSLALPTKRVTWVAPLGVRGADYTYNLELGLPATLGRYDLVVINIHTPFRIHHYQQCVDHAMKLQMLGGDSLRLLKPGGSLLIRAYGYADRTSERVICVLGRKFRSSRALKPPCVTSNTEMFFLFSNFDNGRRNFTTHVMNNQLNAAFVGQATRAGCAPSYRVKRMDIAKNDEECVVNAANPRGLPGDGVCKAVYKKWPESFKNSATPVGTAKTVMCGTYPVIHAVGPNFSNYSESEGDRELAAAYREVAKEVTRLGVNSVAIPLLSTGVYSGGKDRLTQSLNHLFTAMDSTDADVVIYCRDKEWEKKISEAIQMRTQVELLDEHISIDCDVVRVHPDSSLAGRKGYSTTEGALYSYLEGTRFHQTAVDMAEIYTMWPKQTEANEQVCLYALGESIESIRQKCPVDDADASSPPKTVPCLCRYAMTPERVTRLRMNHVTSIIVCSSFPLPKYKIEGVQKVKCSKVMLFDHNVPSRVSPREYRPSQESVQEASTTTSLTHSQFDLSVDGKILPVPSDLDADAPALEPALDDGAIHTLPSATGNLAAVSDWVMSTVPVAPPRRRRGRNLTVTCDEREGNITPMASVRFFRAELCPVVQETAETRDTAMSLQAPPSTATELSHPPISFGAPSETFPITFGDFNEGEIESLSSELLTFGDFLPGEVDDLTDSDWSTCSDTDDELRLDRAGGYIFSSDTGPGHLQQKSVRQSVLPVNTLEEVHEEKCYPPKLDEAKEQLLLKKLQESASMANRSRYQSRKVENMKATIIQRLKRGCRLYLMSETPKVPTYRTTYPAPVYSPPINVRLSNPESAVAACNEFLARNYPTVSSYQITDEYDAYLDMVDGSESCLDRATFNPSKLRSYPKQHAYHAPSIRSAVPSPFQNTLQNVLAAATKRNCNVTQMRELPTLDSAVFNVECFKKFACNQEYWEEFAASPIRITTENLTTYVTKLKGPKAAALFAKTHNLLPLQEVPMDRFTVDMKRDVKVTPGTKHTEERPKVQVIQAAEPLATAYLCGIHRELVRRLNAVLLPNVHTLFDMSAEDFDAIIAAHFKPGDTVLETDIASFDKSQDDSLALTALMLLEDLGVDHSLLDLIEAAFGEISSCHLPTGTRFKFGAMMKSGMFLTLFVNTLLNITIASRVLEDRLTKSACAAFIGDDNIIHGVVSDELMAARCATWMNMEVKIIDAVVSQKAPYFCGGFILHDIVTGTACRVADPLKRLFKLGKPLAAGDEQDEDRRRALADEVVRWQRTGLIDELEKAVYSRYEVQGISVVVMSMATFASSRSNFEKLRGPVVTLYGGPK
# The depositor's hits bear a star; i = inactive; ? = inconclusive; & = joins results of further samples; [ ] = another dose, or the depositor's remark. % is scaled to controls: 0 for no effect and ±100 for the full control effect; potency is read from the fitted curve at half-maximal effect. These rows are one share of the data; rates above refer to the full screens.
SMILES,nsP2pro primary
O=C(Nc1ccccc1C(=O)Nc1ccc(CCO)cc1)c1ccc([N+](=O)[O-])cc1,31%
CC(=O)NCCc1c[nH]c2ccccc12,4%[39.2 µM]
COCc1cc([C@H]2N[C@@](C)(C(=O)OC)[C@H]3C(=O)N(C)C(=O)[C@@H]23)ccc1OC,i
CC(C)(C)OC(=O)Cc1nnc(C(C(=O)OCc2ccccc2)c2ccccc2)s1 (configuration not stated),-28%
NCCCC(=O)N1CCC2(CC1)CN(C(=O)Cc1ccc(Cl)cc1)CCO2,?
COc1ccccc1C(=O)Nc1ccc(-c2cc(C(F)(F)F)nn2-c2ccccc2)cc1,-3%
COc1ccccc1C(=O)Nc1cccc(OCc2cc(=O)n3c4c(sc3n2)CCCC4)c1,-6%
CC1=C2CC3OC3(C)CCC3OC3(C)CC2OC1=O (configuration not stated),-6%
Cc1c(Cl)cccc1-n1ncc(C(=O)N2CCc3ccccc3C2)c1C1CCN(C(=O)OC(C)(C)C)CC1,-12%
CC1(C)C(=O)N2c3ccccc3[C@]3(CC(n4cnc5ccccc5c4=O)C(=O)O3)[C@H]2N1O (some centres not stated),-20%[10 µM]
COc1cccc(N2CCN(C(=O)C3CCCN(S(=O)(=O)c4cccc5nsnc45)C3)CC2)c1 (configuration not stated),?
O[C@]1(c2ccccc2)CCN(Cc2ccncc2)C[C@H]1N1CCCC1,?
CC(C)Cn1c(=O)c2ccccc2n2c(CCC(=O)Nc3cccc(Cl)c3)nnc12,-12%
CCCOc1c(CN2CCCNCC2)cc(Cl)cc1OC,3%
O=C(Nc1cnc(N2CCC(N3CCCCC3)CC2)c(C(=O)O)c1)c1ccc(Br)cc1,4µM*
CC(=O)Nc1sc2c(c1-c1ccccc1)CCNC2,2%
COc1ccccc1C(=O)NC1CCN(c2ccnc3ccnn23)C1 (configuration not stated),-5%[39.2 µM]
O=C(NCCc1ccccc1Cl)c1cc2ccccn2n1,-8%
O=C(CN(Cc1cccc2ccccc12)C1CC1)Nc1ccc(N2CCOCC2)cc1,i
CCOC(=O)[C@H](CCc1ccccc1)N[C@@H](C)C(=O)N1CCC[C@H]1C(=O)O,3%
N[C@@H](Cc1ccc(OS(=O)(=O)c2cccnc2)cc1)C(=O)N1CCN(c2ccccc2)CC1,4%
O=C(Cn1nc(-c2ccc(OC(F)(F)F)cc2)ccc1=O)NCCc1ccccc1,5%
NCCC(=O)N[C@@H](Cc1cnc[nH]1)C(=O)O,-12%
C[C@@H]1O[C@@H](O[C@@H]2[C@@H](O)[C@H](O[C@@H]3[C@@H](O)[C@@H](O)[C@H](O[C@H]4[C@H](OC(=O)[C@]56CCC(C)(C)C[C@H]5C5=CCC7[C@@]8(C)C[C@H](O)[C@H](O[C@@H]9O[C@@H](C)[C@H](O)[C@@H](O)[C@H]9O)[C@@](C)(CO)C8CC[C@@]7(C)[C@]5(C)C[C@H]6O)O[C@H](C)[C@H](O)[C@@H]4O)O[C@H]3C)OC[C@H]2O)[C@H](O)[C@H](O)[C@H]1O (some centres not stated),10%[5.1 µM]
CC(=O)NC(C)c1cc(Cl)c2ccccc2c1O (configuration not stated),-1%
CC(C)Sc1ncc(Cl)c(C(=O)Nc2ccc(S(=O)(=O)N3CCCCC3C)cc2)n1 (configuration not stated),-12%
Fc1ccc(-c2cc(C(F)(F)F)nc(NCc3ccccc3)n2)cc1,-24%
CSCCNc1nc(SCCC(F)(F)F)nc2c1ncn2[C@@H]1O[C@H](COP(=O)(O)OP(=O)(O)C(Cl)(Cl)P(=O)(O)O)[C@@H](O)[C@H]1O,13%
CCOC(=O)C1CCN(C(=O)c2ccccc2NC(=O)c2nsc3ccccc23)CC1,-16%
Cc1nc2sc(C(=O)NCc3ccncc3)c(N)c2c(C)c1Cl,25%
Cn1cc(CNC(=O)c2ccc(S(=O)(=O)N[C@@H]3CCNC3)cc2)cn1,-9%
CCOC(=O)CCNC(=O)N1CCN(S(=O)(=O)c2ccc3c(ccn3C)c2)CC1,-13%
CCC1(C)OC(=O)N(C)C1=O (configuration not stated),?
Cc1cccc(C)c1-n1ncc(C(=O)NCCN2CCN(C)CC2)c1C1CCN(C(=O)OC(C)(C)C)CC1,-22%
O=C(c1cccs1)N1C[C@@H]2C[C@H](C1)c1ccc(C3CCCCC3)c(=O)n1C2,?
CC(=O)N1CCc2[nH]cnc2C12CCN(C(=O)CCn1nnnc1C)CC2,0%
CCC(=O)N1CCOc2c(cc(-c3ccc(OC)c(OC)c3)cc2OC[C@H]2CCCN(C)C2)C1,12%
NCCCCNCCCN,33%[activator]
CCOC(=O)c1cnc2ccc(C(=O)OC)cc2c1Nc1ccc(N2CCOCC2)cc1,?
COc1ccc(Cl)cc1S(=O)(=O)N1CCC(c2ccncc2)CC1,-8%
CC(C)c1ccc2c(c1)C(=O)CC1C(C)(C(=O)O)CCCC21C (configuration not stated),7%
Cc1nc2ccccn2c1P(=O)(c1ccccc1)c1ccccc1,-19%
CC(C)(O)C1CC=C(C(=O)OCC2OC(Oc3c(O)cc(C(=O)O)cc3O)C(O)C(O)C2O)CC1 (configuration not stated),70%[10 µM]
COc1cccc(CN2CCNC(=O)C2CC(=O)N2CCNC(=O)C2)c1OC (configuration not stated),-20%
NC(N)=NCCC[C@H](NC(=O)CNC(=O)c1ccccc1)C(=O)Nc1cc(C(F)(F)F)ccc1Cl,-7%
Cc1ccc(OCCSc2nnc(-c3cccs3)o2)cc1Cl,-22%
CN(C)[C@@H]1CO[C@H](CNC(=O)N2CCOCC2)[C@H]1O,-1%[39.2 µM]
C[C@H](NCCc1ccc(O)cc1)[C@H](O)c1ccc(O)cc1,-1%
CC1=C(/C=C/C(C)=C/C=C/C(C)=C/C=C/C=C(C)/C=C/C=C(C)/C=C/C2=C(C)C[C@@H](O)CC2(C)C)C(C)(C)C[C@H](O)C1,?
CN(C)c1cc(N2CCCC(NC(=O)c3cccnc3)C2)ncn1 (configuration not stated),3%
Cc1cc(CNC(=O)c2cc(C(C)C)nn2C)c2[nH]c(C)c(C)c2c1,-10%
C[C@H]1CO[C@@H]2Cn3cc(C(=O)NCc4ccc(F)cc4F)c(=O)c(O)c3C(=O)N12,57%&41%[activator]
CN1Cc2ccccc2NC(=O)C12CCNC2 (configuration not stated),-16%[39.2 µM]
Cc1csc2nc(COC(=O)c3ccc(NC(=O)c4ccccc4Br)cc3)cc(=O)n12,-16%
C[C@H](CN1CCCC1)C(=O)c1ccc(C(F)(F)F)cc1,1%
COc1ccccc1Nc1ncc2c(n1)CN(C(=O)c1ccnn1C)CCN2,-23%[39.2 µM]
CNC(=O)C1C(=O)NCC12CCN(C(=O)c1ccc(C(C)(C)C)cc1)CC2 (configuration not stated),-20%
CC1=C(/C=C/C(C)=C/C=C/C(C)=C\C(=O)O)C(C)(C)CCC1,-24%&-27%
CC(C)S(=O)(=O)c1ccc2nccc(Nc3ccc4scnc4c3)c2c1,27%
Nc1nc2c(c(N3CC[C@@H](O)C3)n1)CCN(C(=O)[C@H]1CCCO1)CC2,3%
# (next part)
SMILES,nsP2pro primary
Cc1ncc(C(=O)N[C@H]2CC[C@H]2NC2CCCC2)c(-c2ccccc2)n1,i
COc1ccc(-n2c(=O)c3ccc(C(=O)NCc4ccc(C)cc4)cc3n(Cc3ccc(C)cc3)c2=O)cc1,-17%
COc1cccc(NC(=O)CSc2nc3ccc(NC(=O)c4ccco4)cc3s2)c1,?
CCN1CCN(c2oc(-c3ccc(COc4ccccc4C)o3)nc2C#N)CC1,17%
Cc1ccc(-c2cc(C(=O)Nc3ccc(S(=O)(=O)Nc4ccc(C#N)cc4)cc3)c3ccccc3n2)cc1C,-17%
CC1(C)CC(=O)c2c(C(F)(F)F)nn(-c3ccc(C(N)=O)c(NC4CCC(OC(=O)CN)CC4)c3)c2C1 (configuration not stated),-1%&53%
Cc1nc2c(OCC(=O)OC(C)(C)C)cccn2c(=O)c1-c1cc(C)n(-c2cccc(F)c2)n1,-9%
Cc1ccc(-c2ccc(=O)n(CC(=O)NCCC3CC3)n2)cc1,i
Cc1ccc(-n2nc(CO)c(C(=O)NCc3cccs3)n2)cc1,-12%
CN1CCC(Oc2ncccc2NC(=O)c2ccncc2)C1 (configuration not stated),-13%
CNC(=O)[C@@H](NC(=O)[C@H](CC(C)C)[C@H](O)C(=O)NO)C(C)(C)C,?
Cn1ccc(C(=O)N2CC3ON=C(C(=O)NCCc4ccc(Cl)cc4)C3C2)n1 (configuration not stated),-1%

# Quoted at random: 6 records from the list
SMILES,nsP2pro primary
COc1cccc(NC(=O)CSc2nc3ccc(NC(=O)c4ccco4)cc3s2)c1,?
Cn1ccc(C(=O)N2CC3ON=C(C(=O)NCCc4ccc(Cl)cc4)C3C2)n1 (configuration not stated),-1%
COc1ccc(-n2c(=O)c3ccc(C(=O)NCc4ccc(C)cc4)cc3n(Cc3ccc(C)cc3)c2=O)cc1,-17%
Cc1ccc(-c2cc(C(=O)Nc3ccc(S(=O)(=O)Nc4ccc(C#N)cc4)cc3)c3ccccc3n2)cc1C,-17%
CC1(C)CC(=O)c2c(C(F)(F)F)nn(-c3ccc(C(N)=O)c(NC4CCC(OC(=O)CN)CC4)c3)c2C1 (configuration not stated),-1%&53%
Cc1ccc(-n2nc(CO)c(C(=O)NCc3cccs3)n2)cc1,-12%

# The list goes on.
SMILES,nsP2pro primary
CCOC(=O)c1cccc(NS(=O)(=O)c2cn(C)c(C)n2)c1,-23%
COC[C@@H]1CN(S(=O)(=O)c2ccc(C)cc2)C[C@H]1c1ccncc1,i
O=C(O)c1cccc(-c2noc(-c3cccc(Cl)c3)n2)c1,-9%
COc1cccc(CNc2ccc(S(=O)(=O)Nc3ccccn3)cc2)c1O,i
O=C(Nc1cccc(NC(=O)c2ccc(Br)o2)c1)c1ccccc1,-11%
CC[C@@H](O)C[C@@H]1C(C)=C[C@@H]2CCCC[C@@H]2[C@@]1(C)C(=O)O,?
O=C(O)CCSc1nnc(-c2ccc(Cl)cc2Cl)o1,-19%
CNc1nc2c(c(C(=O)N3CCCC3)n1)CN(CC1(O)CCNC1)CC2 (configuration not stated),4%
CCCn1c(C)nc2c(NCC3CCCN3CC)nc(C)nc21 (configuration not stated),-3%
CN1C(=O)C(CC(=O)N2CCC(C#N)CC2)(Cc2ccccc2)c2ccccc21 (configuration not stated),i
COc1ccc(S(=O)(=O)N2CCC(C(=O)Nc3ccc(Oc4ccccc4)cc3)CC2)cc1OC,-7%
COc1cc2c(c(O)c1OC/C=C(\C)CC/C=C(/C)CCC=C(C)C)CN(C(CCC(=O)O)C(=O)O)C2=O (configuration not stated),-16%[10 µM]

# Copied from the list:
# For nsP2pro primary, `CC1(C)C(=O)N2c3ccccc3[C@]3(CC(n4cnc5ccccc5c4=O)C(=O)O3)[C@H]2N1O` (some centres not stated) reads -20%[10 µM]
# For nsP2pro primary, `Cc1ccc(-c2cc(C(=O)Nc3ccc(S(=O)(=O)Nc4ccc(C#N)cc4)cc3)c3ccccc3n2)cc1C` reads -17%

# Remaining list, next part:
SMILES,nsP2pro primary
C[C@@H]1CC[C@]2(C(=O)O)CC[C@]3(C)C(=CCC4[C@@]5(C)C[C@@H](O)[C@H](O)[C@@](C)(CO)C5CC[C@]43C)C2[C@]1(C)O (some centres not stated),10%[10 µM]
COc1cccc(C(=O)N(CC(C)C)CC2CN(C(=O)Nc3ccccc3)CCO2)c1 (configuration not stated),i
Cc1nn(C(=O)CCC(=O)N2CCC(Cc3nncn3CC3CC3)CC2)c2ccccc12,-3%
CC1CC2(O)OC(=O)C3=C2C(CCC3)[C@@]12C[C@@H](c1ccoc1)OC2=O (some centres not stated),?
Cc1ccc(S(=O)(=O)Nc2cnccc2C(=O)Nc2nc(C(=O)O)cs2)cc1,2%
COc1ccc2c(c1)C(CN1CCN(c3ccc4oc(C(=O)O)cc4c3Cl)CC1)=CC(C)(C)CO2,i
CCOc1ccc(/C=C(\C#N)c2nc3ccccc3c(=O)[nH]2)cc1OC,-23%
O=C(N1CCC(Cc2nc(C3CC3)n[nH]2)CC1)C1(c2ccccc2)CC1,-13%
COc1ccc(C(=O)Nc2ccc(N3CCOCC3)c(C(F)(F)F)c2)cc1OC,-2%
CCNc1nc(NC(C)(C)C)nc(Oc2ccc(=O)n(C)n2)n1,-15%
COc1ccc(CCc2nc3nccc(-c4ccncc4)n3n2)cc1,i
CN1Cc2ccc(NCc3ccccc3)nc2C(C)(C(=O)Nc2ccccc2)C1 (configuration not stated),-20%[39.2 µM]

# The final 2 entries of the part before come first, to join the parts.
SMILES,nsP2pro primary
COc1ccc(CCc2nc3nccc(-c4ccncc4)n3n2)cc1,i
CN1Cc2ccc(NCc3ccccc3)nc2C(C)(C(=O)Nc2ccccc2)C1 (configuration not stated),-20%[39.2 µM]
Cc1ccc(CN2C[C@@H]3C(=O)N(C)C(=O)[C@@H]3C2)o1,?
Cc1cc(-c2ccccc2)n2nc(-c3cccc(Br)c3)cc2n1,-17%
CCn1cnc2c(Nc3cc(F)cc(F)c3)nc(C(=O)COc3c(F)c(F)cc(F)c3F)nc21,i
Cc1ccccc1C(=O)N1CC/C(=N\OS(=O)(=O)O)c2ccc(Cl)cc21,2%
CCCCn1c(CNC(=O)c2ccc(OC)cc2)nnc1SCC(=O)Nc1ccccc1,-5%
Cc1ccc(NS(=O)(=O)c2cc3c(cc2Br)NC(=O)CO3)cc1C,1%
O=C(Nc1cc(C(F)(F)F)ccc1Cl)c1cc(-c2ccc3c(c2)OCCO3)on1,-20%
O=C(O)C1Cn2cccc2C(=O)N1Cc1cccnc1 (configuration not stated),-4%
O=C(Cn1cccn1)N1C[C@@H](COCC2CC2)[C@H](c2ccccn2)C1,i
Cc1nc(-c2ccc(S(=O)(=O)Nc3ccc(C)c(C)c3)s2)cs1,1%
COc1ccccc1-n1c(/C=C/c2c(C)n(C)c3ccccc23)nc2ccccc2c1=O,?
